# High-throughput results as filed in PubChem BioAssay.
# ugtP null kill = growth inhibition of ugtP-null S. aureus, primary screen, RN4220 ugtP deletion, OD600. 16 h; some inactives read as strong as hits. growth inhibition, % (concentration not given with the values). actives 0.54% (n = 330,000). AID 1259309, 2017;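 active = z-score under -3 and OD600 up to 0.15 on both plates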;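 also: plate controls were untreated wells for no effect and antibiotic for full effect; wells of about 80 µL received 100 nL stock; the first replicate is given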
# PrP UTR inh = inhibition of PrP 5' UTR reporter expression. cell-based PrP 5' UTR mRNA reporter, plate reader. inhibition, % (test concentration not listed). actives 0.35% (n = 340,000). AID 488862, 2010;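 active = every replicate at 50% or more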;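 also: 0 = median of the neutral control wells; tested in H4 reporter cells; numbers are from one replicate; inactives centre near -14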
# RN4220 kill = growth inhibition of S. aureus RN4220, primary screen, OD600. 16 h. inhibition, % (concentration not given with the values). actives 0.33% (n = 330,000). AID 1259311, 2017;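 active = z-score of -3 or lower and OD600 up to 0.18 on both plates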;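 also: plate controls were untreated cells for no effect and reference antibiotic for full effect; stock transfer was 100 nL into about 80 µL; one replicate is shown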
# BJeLR lethal = MLPCN primary cell-based screen for lethality selective to Ras in HRASV12 cells. BJeLR (HRASV12) viability, CellTiter-Glo ATP luminescence, 48 h; reference of the scale not given here. inhibition, % (test concentration not listed). actives 0.17% (n = 300,000). AID 1554, 2009;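 active = replicate mean above 50%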;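 also: 50 nL library stock added to about 25 µL; numbers are from one replicate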
# Autofluor counter = counter-screen for toxin protease inhibitors: compound fluorescence | AID 624483 | compound autofluorescence counterscreen, microsphere flow cytometry; active compounds read high | actives 3.1% (n = 360,000) | fluorescence intensity (concentration not given with the values);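 active = at least 3 SD above the mean of all compounds, about 16000 in these data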;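 also: 100 nL of 1 mM stock went into each well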
# Mtb hypoxia inh = PubChem AID 1159583; M. tuberculosis hypoxia-regulated fluorescent reporter, fluorescence; fluorescence inhibition, % (concentration not given with the values); actives 0.1% (n = 300,000);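 active = 35 to 45% if threefold the growth effect, above 45% if 1.5-fold the growth effect; inactive = the rest, general growth blockers included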;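 also: wells of about 50 µL received 100 nL stock; 0% = vehicle wells and 100% = reference inhibitor wells; whole bacteria with a GFP reporter of the hypoxia response; strong numbers were not always called active; many hits fall short of the cut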
# Mtb hypoxia inh growth = recorded beside Mtb hypoxia inh, whose call it bears; growth inhibition, %; measured here: M. tuberculosis growth (absorbance);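 0% = vehicle and 100% = reference antibiotic; read after six days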
# The depositor's hits bear a star; x = not tested or not shown. Not a hit list; overall some 4.1% were active at least once.
structure,ugtP null kill,PrP UTR inh,RN4220 kill,BJeLR lethal,Autofluor counter,Mtb hypoxia inh,Mtb hypoxia inh growth
O=C(c1ccc2c(c1)OCO2)N1CCN(S(=O)(=O)c2ccc(Cl)cc2)CC1,7,-9,1.7,1,3864,-10,-15
CC(=O)c1c(C)oc2ccc(N(C(C)=O)S(=O)(=O)c3ccc(F)cc3C)cc12,3,-2,5.2,-7,6334,3,1
COc1ccccc1CC(=O)Nc1ccc(C(=O)N2CCCCC2)cc1,4,-53,-2.5,10,5166,12,10
O=C1NC(=O)C(CCc2ccccn2)(Cc2ccc3c(c2)OCO3)C(=O)N1CCc1ccccc1 (stereo not given),-1,-20,3.2,1,3839,x,x
COc1ccc(NC(=O)COC(=O)CON=C(C)c2ccc3c(c2)OCO3)cc1S(N)(=O)=O,4,x,3.0,x,x,-8,-3
CC(C)(C)OC(=O)COc1cc(O)c2c(=O)cc(-c3ccccc3)oc2c1,-17,-1,5.0,14,1995,4,-6
S=C1NC2(CCCCC2)N=C1c1ccccc1,6,0,4.8,4,9412,5,2
CC1CCCN(C(=O)C2CCN(C(=O)Nc3ccccc3)CC2)C1 (stereo not given),2,-13,1.5,x,8320,2,0
CCOc1ccc(N(CC(=O)NCCc2ccc(F)cc2)S(=O)(=O)c2ccccc2)cc1,x,-34,x,0,5766,x,x
NC(=O)NNc1ncc(C(F)(F)F)cc1Cl,2,-17,5.5,6,2566,8,13
O=C(CSc1nc2c(c(=O)n1-c1ccc(F)cc1)SCC2)N1CCCC1,4,-23,2.7,0,2446,x,x
Cc1ccc(C=NNC(=O)c2ccc3nc[nH]c3c2)o1,5,x,-0.8,x,x,8,9

# An excerpt from above in order of number of heavy atoms, descending:
structure,ugtP null kill,PrP UTR inh,RN4220 kill,BJeLR lethal,Autofluor counter,Mtb hypoxia inh,Mtb hypoxia inh growth
CC(=O)c1c(C)oc2ccc(N(C(C)=O)S(=O)(=O)c3ccc(F)cc3C)cc12,3,-2,5.2,-7,6334,3,1
CC(C)(C)OC(=O)COc1cc(O)c2c(=O)cc(-c3ccccc3)oc2c1,-17,-1,5.0,14,1995,4,-6
CC1CCCN(C(=O)C2CCN(C(=O)Nc3ccccc3)CC2)C1 (stereo not given),2,-13,1.5,x,8320,2,0
Cc1ccc(C=NNC(=O)c2ccc3nc[nH]c3c2)o1,5,x,-0.8,x,x,8,9
NC(=O)NNc1ncc(C(F)(F)F)cc1Cl,2,-17,5.5,6,2566,8,13

# (list continues)
structure,ugtP null kill,PrP UTR inh,RN4220 kill,BJeLR lethal,Autofluor counter,Mtb hypoxia inh,Mtb hypoxia inh growth
CCCCCCC1CC(=O)NC(=O)N1 (stereo not given),4,-14,4.4,-15,4174,19,6
COc1ccccc1NS(=O)(=O)c1ccc(/C=C/C(=O)O)cc1,15,-50,8.0,2,2402,8,-6
Cc1nc(Sc2ccccc2)c(C#N)cc1-c1ccccc1,59,-23,6.3,-18,12117,8,6
CC(C)Oc1ccc(C(=O)Nc2ccc(N3CCCC3)cc2)cc1,12,-2,6.6,4,5536,8,2
C=C1CCN([C@@H](Cc2ccccc2)C(=O)NCc2ccc(Cl)cc2)S(=O)(=O)c2ccccc21,x,-5,x,11,4056,x,x
C[C@H](NC(=O)c1cc2cc(Cl)ccc2n1C)C(=O)N[C@@H](Cc1ccccc1)C(=O)O,9,-6,8.1,4,3328,9,4
O=C(c1n[nH]c2ccccc12)N1CCN(c2ccc(F)cc2)CC1,9,-29,2.6,17,4682,8,12
O=C(c1nsc(Cl)c1Cl)N1CCCCC1,3,-25,3.8,4,20635*,16,19
C/C(=N\NC(=S)NCCc1ccccc1)c1ccc(C#N)cc1,x,-15,x,-4,5286,x,x
COc1ccc(-c2ccc(OC)cc2)cc1,5,-36,15,10,3549,x,x
CN(CCOc1ccccc1)C(=O)c1ccc(N2CCCC2)c([N+](=O)[O-])c1,2,-16,-2.0,-4,3241,-3,-4
CC(Oc1ccc(NC(=O)c2ccco2)cc1)C(=O)N1c2ccccc2CC1C (stereo not given),-7,-21,-1.8,7,3766,9,4

# Later entries
structure,ugtP null kill,PrP UTR inh,RN4220 kill,BJeLR lethal,Autofluor counter,Mtb hypoxia inh,Mtb hypoxia inh growth
Cc1ccc(C=NNC(=O)c2nnn(-c3nonc3N)c2CN(C)C)o1,7,x,6.0,x,x,8,3
CC(=O)Nc1ccc(S(=O)(=O)N2CCN(S(=O)(=O)c3ccccc3)CC2)cc1,1,-6,1.3,1,3882,-8,-1
Cc1cccc(C)c1Nc1nc2ccccc2o1,-3,-12,2.0,2,5257,7,18
O=C(COc1ccc(S(=O)(=O)NCCc2ccccc2)cc1)N1CCCC1,4,-17,-1.9,0,4961,4,14
Cc1onc(C(=O)N2CCN(c3ccccc3)CC2)c1[N+](=O)[O-],1,-9,6.6,-1,5773,10,0
Cc1ccc2c(c1)N(CC(=O)N1CCCCC1)C(=O)CO2,18,-7,4.7,6,3681,-2,5
Cc1cc(C(=O)N2CCCC(C(=O)c3cccc(C(F)(F)F)c3)C2)n[nH]1 (stereo not given),-6,3,-3.6,5,4330,-3,-9
Cc1ccc(CC(=O)Nc2ccc(C(=O)N3CCOCC3)cc2)cc1,2,-20,-0.1,8,5747,8,6
Cc1cc(N2CCOCC2)nc(N2CCOCC2)n1,7,-8,0.5,-5,3885,-5,-5
Cc1cc2c(ncn2C(C)C)c(N)c1C,1,-29,2.3,4,8967,13,4
Cc1ccc(S(=O)(=O)N2CCCC2c2nc3ccccc3s2)cc1 (stereo not given),9,-10,7.5,0,3385,21,-19
Cc1noc(C)c1C(=O)OCC(=O)NCCc1ccc(Cl)cc1,-2,-15,0.7,-2,3381,8,4

# Next section.
structure,ugtP null kill,PrP UTR inh,RN4220 kill,BJeLR lethal,Autofluor counter,Mtb hypoxia inh,Mtb hypoxia inh growth
COCCN(C(=O)COC(=O)/C=C/c1ccc2ccccc2n1)c1c(N)n(Cc2ccccc2)c(=O)[nH]c1=O,2,-9,-0.7,4,5209,9,5
CC(=O)NS(=O)(=O)c1ccc(N=NN2CCCCC2)cc1,-4,-27,0.5,-14,8469,2,-8
CCC(=O)OC1C(OC(C)=O)[C@@]2(O)C(CC(O)C2(C)C)[C@](C)(O)C2CCC3C(O)[C@]12C[C@@]3(C)O (stereo not given in full),1,x,5.6,x,x,-3,-5
O=C(O)CCC(=O)N1CCc2cc(S(=O)(=O)NCCc3ccc(Cl)cc3)ccc21,-3,-23,-0.7,7,4815,-12,-8
CC1Cc2ccccc2N1C(=O)CSc1nnnn1C (stereo not given),6,-16,9.8,-1,3651,-1,-2
O=C(NN=Cc1ccccc1)c1cc(=O)[nH]c2ccccc12,4,x,1.0,x,x,9,0
O=C(Nc1c2ccccc2nc2ccccc12)C(Cl)(Cl)Cl,-14,-10,-16,15,2360,12,7
O=S(=O)(/C=C/c1ccccc1)N1CCc2ccccc2C1,10,-18,8.3,-5,3454,8,1
Cn1c(=O)cc(SCC(=O)NCc2cccnc2)c2ccccc21,-1,-20,-3.1,-7,4308,1,4
CC(C(=O)NCc1ccco1)c1ccc([N+](=O)[O-])cc1 (stereo not given),4,-3,3.6,7,2334,x,x
CCN(CC)CCNC(=O)c1cn(CC)c2ccc(S(=O)(=O)N(C)C)cc2c1=O,12,-8,-0.7,-13,5815,x,x
CCCC(CCC)=NNC(=O)CN(Cc1ccccc1)S(=O)(=O)c1ccccc1,7,-33,2.9,2,9161,8,11

# Following part.
structure,ugtP null kill,PrP UTR inh,RN4220 kill,BJeLR lethal,Autofluor counter,Mtb hypoxia inh,Mtb hypoxia inh growth
Cc1ccc2c(c1)C1C(CO2)C(c2ccccc2)[C@]2(C)C(=O)Nc3ccccc3C(=O)N12 (stereo not given in full),2,x,-5.5,x,x,10,8
CCOC(=O)C1CCN(C(=O)/C=C/c2ccc3c(c2)OCO3)CC1,6,-40,0.9,-1,4344,-8,-1
CCc1[nH]nc(C(=O)N2CCCC(Nc3cccc(F)c3)C2)c1C (stereo not given),8,5,1.6,-3,4149,5,-2
C=CCN(CC=C)CCOc1ccccc1[N+](=O)[O-],12,-41,3.1,-14,2643,17,2
CN(CCC#N)C(=O)COC(=O)c1c2c(nc3ccccc13)C(=Cc1ccco1)CC2,-16,x,2.3,x,x,1,2
O=C(CCCN1C(=O)/C(=C\c2cccs2)SC1=S)Nc1cccc(C(=O)O)c1,10,7,10,-2,2515,13,14
COc1cccc(CNC(=O)c2cc3ccccn3n2)c1,-1,-23,3.4,-7,5225,1,4
COc1ccccc1N1CC(C(=O)NCCC2=CCCCC2)CC1=O (stereo not given),7,-12,0.5,x,6367,7,3
COc1ccc(N2C(=O)c3ccccc3NC23C(=O)N(C)c2ccccc23)cc1 (stereo not given),-5,-23,-1.5,-15,17048*,2,15
Cc1ccc(S(=O)(=O)N2CCCC2C(=O)OCc2nc3sc(C)c(C)c3c(=O)[nH]2)cc1 (stereo not given),6,-4,4.8,2,2215,1,1
Cc1cc(C)n2nc(S(=O)(=O)N(C)Cc3ccccc3)nc2n1,0,-12,6.7,-21,19864*,8,6
CSc1ccc(S(=O)(=O)NC2CCCCC2)cc1,7,-21,2.1,0,10975,19,1

# Additional entries.
structure,ugtP null kill,PrP UTR inh,RN4220 kill,BJeLR lethal,Autofluor counter,Mtb hypoxia inh,Mtb hypoxia inh growth
COC(=O)c1c(C)oc(C)c1S(=O)(=O)NCc1ccc(Cl)cc1,-1,-30,6.8,-6,4663,4,-2
O=S(=O)(c1ccc(Br)cc1)c1nc(-c2ccccc2)oc1NCCN1CCOCC1,10,5,2.4,-1,4957,2,-5
O=C(Cn1cnc2ccccc21)c1ccccc1,4,-15,3.7,-2,3787,10,17
C/C=C/c1ccc(OCCOc2ccc(C=O)cc2OC)c(OC)c1,4,-15,2.4,13,2380,5,-5
O=C(CCCC1=NS(=O)(=O)c2ccccc2N1)OCc1ccc(Cl)cc1,12,-117,3.2,0,4210,5,13
CCN(CC)CCC(c1ccc2c(c1)OCO2)c1c(OC)cc(OC)c2c(-c3ccccc3)cc(=O)oc12 (stereo not given),-4,7,-5.5,10,2974,-4,4
CC(C)=CCN1CCN(Cc2cccn2-c2ncccn2)CC1CCO (stereo not given),2,-8,9.5,5,3902,8,7
COc1ccc2c(CN(C)c3ccccc3)cc(=O)oc2c1,x,-41,x,-2,11535,x,x
CCOc1ccc(CNC(=S)NN=Cc2cccnc2)cc1,5,x,0.7,x,x,4,4
O=C(NN1C(=O)c2ccc(-c3ccc4c(c3)C(=O)N(NC(=O)c3cccnc3)C4=O)cc2C1=O)c1cccnc1,2,-1,1.4,11,5008,12,6
COc1ccc(Nc2nc(C)cc(C)n2)cc1Cl,4,-13,3.2,-8,4256,0,0
O=C(O)CC(=O)Nc1ccccc1C(=O)O,5,-19,2.0,7,4011,17,6

# Next entries
structure,ugtP null kill,PrP UTR inh,RN4220 kill,BJeLR lethal,Autofluor counter,Mtb hypoxia inh,Mtb hypoxia inh growth
O=C(CC1CCCCC1)NCC1CCCO1 (stereo not given),7,-29,6.9,9,9498,x,x
COc1cccc(NC(=O)CN(C)C(=O)Cn2cnc3ccccc3c2=O)c1,7,-3,4.9,4,4943,13,0
CCC(C)(C(=O)NC1CCCC1)N(Cc1ccco1)C(=O)Cc1cccs1 (stereo not given),1,-32,3.4,1,4440,6,2
COc1ccc(CCNCc2ccc(OCc3ccc(Cl)nc3)c(OC)c2)cc1OC,-2,-16,4.5,6,3276,7,16
O=C(CCc1ccccc1)N1CCN(Cc2ccc(F)cc2Cl)CC1,5,8,4.4,2,3647,21,5
Cc1ccc(/C=C/C(=O)C2C(=O)c3ccccc3C2=O)cc1,30,12,24,-7,10065,-2,-4
Cc1cc(C(F)F)n2ncc(C(=O)NCCc3ccc(Cl)cc3)c2n1,-2,-7,6.5,9,4136,x,x
Cc1ccccc1OCCC(=O)Nc1ccc(Cl)cc1F,7,-18,2.7,-4,1935,x,x
CCc1nn(C(CC)C(=O)NCc2cccc(OC)c2OC)c(=O)c2cc3occc3n12 (stereo not given),-2,-18,1.2,-18,5062,2,0
COc1ccc(Nc2cnn(-c3nc4ccccc4s3)c(=O)c2Cl)cc1,14,-63,28,15,10695,5,6
Cc1cc(C)c(NS(=O)(=O)c2ccc3c(c2)NC(=O)CCS3)c(C)c1,3,-1,55,9,4402,4,-4
COc1ccc(-c2nc(-c3ccc4c(c3)OCO4)[nH]c2-c2ccc(OC)cc2)cc1,87*,-34,16,-5,12229,-4,5
Cc1c(NC(=O)Nc2ccccc2C(F)(F)F)c(=O)n(-c2ccccc2)n1C,20,-23,1.9,-18,3471,4,5
